UUG fidelity: yeast start codon fidelity modulation. S. cerevisiae UUG-firefly luciferase reporter, luminescence/redox ratio. AID 602363. activity score, % at 18.7 µM. hit rate 0.13% among 350,000;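 active means replicate mean at a twofold rise or more, about +100% in these data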;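 further: firefly luciferase made from a UUG start codon reports start codon fidelity; reporter light over untreated wells divided by growth signal over untreated wells; some hits fall short of that in this replicate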
CSC inhib: cancer stem cell inhibition; AID 2717; cancer stem cell-like cells viability, luminescence; inhibition, % at 7.5 µM; hit rate 1.1% among 300,000;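 active means mean at 75% or more and at least half the replicates too; inconclusive means mean and replicates disagree; tested in HMLE shEcad cells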;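 further: 0% = median of negative and 100% = median of positive control wells; the first replicate is given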
PABP FP inh: blocks human PABP binding to poly(A) RNA | fluorescence polarization | hit rate 1% among 290,000 | AID 2014 | inhibition, % at 35 µM;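 active means 50% or more with normal probe brightness, or confirmed in later tests; inconclusive means above 50% with abnormal brightness, or retests that disagree; inactive means below 50% or failed in later tests; about a fifth of its hits are not listed in these tables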;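 further: calls also rest on retests at 20 µM and on dose response follow-up; controls were probe without protein and protein plus probe with vehicle; some compounds called inactive have numbers as strong as hits; many hits fall short of the cut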
Target sequence (P11940 whole entry, looked up): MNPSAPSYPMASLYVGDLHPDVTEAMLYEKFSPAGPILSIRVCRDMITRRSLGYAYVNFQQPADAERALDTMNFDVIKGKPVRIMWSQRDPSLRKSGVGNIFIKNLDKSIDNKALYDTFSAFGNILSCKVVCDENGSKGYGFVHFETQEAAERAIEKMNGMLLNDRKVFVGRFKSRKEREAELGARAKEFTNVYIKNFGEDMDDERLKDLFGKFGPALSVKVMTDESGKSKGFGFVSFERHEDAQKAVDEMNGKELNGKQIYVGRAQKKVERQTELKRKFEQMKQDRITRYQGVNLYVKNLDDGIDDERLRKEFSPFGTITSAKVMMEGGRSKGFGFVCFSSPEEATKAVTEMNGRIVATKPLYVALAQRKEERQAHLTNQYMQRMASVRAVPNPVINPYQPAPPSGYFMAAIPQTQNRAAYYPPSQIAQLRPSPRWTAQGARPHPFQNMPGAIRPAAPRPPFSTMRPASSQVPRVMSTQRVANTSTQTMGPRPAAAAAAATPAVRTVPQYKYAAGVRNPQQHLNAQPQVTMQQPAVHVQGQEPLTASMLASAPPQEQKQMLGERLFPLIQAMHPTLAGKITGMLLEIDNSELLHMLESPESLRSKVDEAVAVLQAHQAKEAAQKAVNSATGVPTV
Env fusion inh: HIV envelope-mediated fusion inhibition | HeLa-JRFL Env/CEM21 cell fusion, luciferase | inhibition, % at 12.3 µM | hit rate 1.1% among 360,000;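 active means mean replicate inhibition score of at least 50 and every replicate individually at or above 50; inconclusive means only one of the two criteria met; inactive means mean below 50 and not all replicates reaching 50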;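 further: 0% = plate neutral controls and 100% = maraviroc near 300 nM; one replicate is shown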
MT1-MMP act inh: blocks activation of human MT1-MMP; HT1080 RFP-PRO-GFP cells, GFP/RFP ratio fluorescence, overnight; percent of plate control window, DMSO zero; hit rate 0.061% among 360,000; GFP/RFP ratio change, % at 20 µM;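 active means GFP/RFP ratio change of at least 30% with cell ATP level not reduced by more than half and red fluorescence within 50% of control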; further: strong numbers were not always called active
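Assay system: HT1080 RFP-PRO-GFP cells | Dosing: 20 µM single dose, 1% DMSO | Incubation: Cells overnight before dosing, compound overnight, 37 °C, 5% CO2 | Evaluation: GFP/RFP fluorescence ratio | Control set: DMSO-only wells and HT1080 RFP-L50D-GFP cell wells as references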
eIF4H inh: inhibitors of RNA binding by human eIF4H; Q15056; eIF4H fluorescence polarization binding assay; inhibition, % at 35 µM; hit rate 0.94% among 290,000;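 active means 50% or more with normal probe brightness, or confirmed in later tests; inconclusive means above 50% with abnormal brightness, or retests that disagree; inactive means below 50% or failed in later tests; about a fifth of its hits are not listed in these tables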;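 further: calls also rest on retests at 20 µM and on dose response follow-up; 0% = protein and probe with vehicle and 100% = probe without protein; strong numbers were not always called active; many hits fall short of the cut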
Rce1 inhib: blocks yeast Ras-converting enzyme | Q03530 | yeast membranes, quenched prenylated peptide cleavage fluorescence | calls only | hit rate 0.27% among 290,000;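 active means fall in fluorescence gain of 50% or more versus controls, with final raw signal at or below 3038400; inconclusive means same 50% fall but final raw signal above 3038400; inactive means fall in fluorescence gain under 50%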;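 further: plate controls were neutral control wells for no effect and wells lacking membranes for full effect; tested at 10 µM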
Target sequence (Q03530 whole entry, looked up): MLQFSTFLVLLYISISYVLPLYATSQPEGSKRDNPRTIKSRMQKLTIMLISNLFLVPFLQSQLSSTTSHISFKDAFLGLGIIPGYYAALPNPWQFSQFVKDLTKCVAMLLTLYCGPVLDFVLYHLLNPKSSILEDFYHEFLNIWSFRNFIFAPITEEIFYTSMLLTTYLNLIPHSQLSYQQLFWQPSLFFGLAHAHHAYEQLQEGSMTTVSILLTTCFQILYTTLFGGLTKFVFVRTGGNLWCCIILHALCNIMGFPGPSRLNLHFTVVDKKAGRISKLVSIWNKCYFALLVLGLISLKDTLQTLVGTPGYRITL
eIF4H inh retest: second read-out of eIF4H inh, no call of its own (marks repeat the call); inhibition, %; compound at 20 µM; confirmation average;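 mean of two retest wells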
PABP FP inh retest: second read-out of PABP FP inh, no call of its own (marks repeat the call); inhibition, %; compound at 20 µM; confirmation repeats;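 mean of two retest wells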
MT1-MMP act inh RFP: second read-out of MT1-MMP act inh, no call of its own (marks repeat the call); RFP signal change, %; measured here: RFP expression control read;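 0 = vehicle wells; hits needed this value within 50% of zero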
Starred values were filed as active, the others as inactive; i = inactive; ? = inconclusive; nt = not tested or not shown; & = joins results of further samples.

SMILES	UUG fidelity	CSC inhib	PABP FP inh	Env fusion inh	MT1-MMP act inh	MT1-MMP act inh RFP	eIF4H inh	Rce1 inhib	others
CC(C)NC(=O)C1(C)CCN1C(=O)C/C=C/c1ccccc1 (stereo unspecified)	-12	nt	nt	-3	7	10	nt	nt
CC(C)CC(=O)NC(=S)Nc1cccc(NC(=O)c2ccccc2Cl)c1	-21	-8	-11	38	-1	-4	-8	i
C[C@@H]1COC(=O)[C@H](CC(=O)OC(C)(C)C)C/C=C\C[C@@H](CC(=O)N(CCO)Cc2ccccc2)C(=O)N1	3	5	nt	-20	-6	0	nt	nt
Brc1ccccc1-c1nnc(COc2ncnc3c2cnn3-c2ccccc2)o1	-13	5	8	nt	6	-6	3	i
Cc1cnc(NC(=O)C2CC(=O)N(c3cccc(Cl)c3)C2)s1 (stereo unspecified)	4	45	-8	-263	5	-3	-1	i
Cc1c(C(=O)N2CCCCC2)c(S(=O)(=O)NCCc2ccc(S(N)(=O)=O)cc2)c(C)n1C	3	-8	4	-5	-1	2	10	i
O=c1c2c(nc3nc(SCc4ccccc4)[nH]n13)CCC2	29	-6	1	-19	-2	4	2	nt
COc1cccc(C(=O)N2CCN(c3ccccn3)CC2)c1	-13	-12	8	-17	1	0	-2	i
CC(C)c1ccc(Nc2ccc(C(=O)O)cc2[N+](=O)[O-])cc1	-10	-6	-4	-14	nt	nt	29	i
Cc1ccc(-c2cc(C(=O)NCc3ccccn3)c3ccccc3n2)cc1	-30	-7	-6	nt	-4	-7	1	i
O=C(Nc1cc([N+](=O)[O-])ccc1Cl)c1cccnc1	-5	-8	7	0	2	2	7	i
C=CCNc1oc(COc2ccc(C)cc2)nc1C#N	-2	-6	-16	-185	1	5	-2	i
Cc1csc(SCC(=O)Nc2c(C)n(C)n(-c3ccccc3)c2=O)n1	2	-1	7	nt	2	4	-6	i
CS(=O)(=O)N(CC(=O)Nc1cccc([N+](=O)[O-])c1)c1ccccc1F	nt	-2	0	?	0	2	-3	i
O=C(Nc1nc2c(Cl)cccc2s1)c1ccc(Br)o1	-10	-2	-5	-58	-23	-18	-12	i
CN(C)S(=O)(=O)c1ccc(C(=O)Nc2ccc(OCC(=O)N3CCOCC3)cc2)cc1	4	-9	5	nt	4	0	-3	i
CN(C)S(=O)(=O)c1cccc(C(=O)C2=C3SC=C(c4ccccc4)N3CC2)c1	-5	36	0	-124	-12	1	5	i
COc1ccc(/C=N\N2CCN(Cc3ccccc3Cl)CC2)cc1	11	17	10	4	3	3	-12	i
CC(C)(C)c1ccc(/C=C2/SC(N3CCCC3)=NC2=O)cc1	7	9	3	6	-1	-10	6	i
Cc1cccc(C)c1OCC(=O)N(Cc1cccs1)C1CCS(=O)(=O)C1 (stereo unspecified)	-1	27	-5	-16	-3	-3	-1	i
O=[N+]([O-])c1ccc(-c2c(-c3ccccc3)ncc3ccc(F)cc23)cc1	-16	45	nt	-1	-2	-2	nt	nt
COc1ccc(/C=N/NC(=O)c2ccc(CN3c4cccc5cccc(c45)S3(=O)=O)cc2)cc1	-6	-3	-7	nt	0	-9	-6	i
COCCSc1nnc(NS(=O)(=O)c2ccc(F)cc2)s1	nt	4	4	12	-1	-1	-11	nt
O=C(CSc1nnnn1-c1ccc(F)cc1)c1ccc(O)c(O)c1	5	-8	13	7	-2	-5	2	i
Cc1cc(F)cc(-c2cc(C(=O)NCC3CCCCC3)[nH]n2)c1	-23	nt	nt	2	0	-2	nt	nt
CC(C)(O)C#Cc1ccccc1C(=O)NC(CC(N)=O)C(=O)O (stereo unspecified)	-16	nt	3	nt	1	3	-3	i
Cc1ccc2nc(-c3ccco3)c(Cc3ccccc3)n2c1	-2	nt	nt	-22	-1	-3	nt	nt
COc1ccc(/C=C2\NC(=S)N(CC3CCCO3)C2=O)c(OC)c1C (stereo unspecified)	-13	-27	-6	nt	-7	-4	3	i
COc1ccccc1NS(=O)(=O)c1cc(N/C(=N/S(=O)(=O)c2ccccc2)c2ccc(F)cc2)ccc1Cl	-7	nt	nt	4	5	-4	nt	nt
CC1Cc2ccccc2N1CC(=O)NCc1ccc2c(c1)OCO2 (stereo unspecified)	nt	-6	-3	-2	1	4	-9	i
O=[N+]([O-])c1c(NCCO)cc(N2CCC3(CC2)OCCO3)c2nonc12	-10	-9	-8	-1	5	4	2	i
CC(C)(C)C1=NN(c2ccc([N+](=O)[O-])cc2)C(c2ccccc2)C1 (stereo unspecified)	-12	29	3	-2	-2	0	61	nt	eIF4H inh retest=39;PABP FP inh retest=43
CCC1C(=O)Nc2nc(-c3ccccc3)c(-c3ccccc3)n2N=C1C (stereo unspecified)	-3	-3	9	nt	-2	-6	-7	i
COc1ccc(S(=O)(=O)Nc2ccc(NC(C)=O)cc2)cc1OC	-31	4	5	-1	2	0	-4	i
CCOCc1nnc(NC(=O)C2CCN(C(=O)c3ccco3)CC2)s1	-13	-16	-12	-17	2	7	-2	i
NC(=O)CC(NC(=O)c1cccc(Br)c1)c1ccc(N2CCN(c3ccccn3)CC2)c([N+](=O)[O-])c1 (stereo unspecified)	5	3	-1	17	0	-2	-4	i
Cn1c(=O)c(C(=O)NCc2ccccc2)c(O)c2ccccc21	-24	-2	3	-21	2	6	-6	i
O=C(Cc1coc2ccc3ccccc3c12)NC1CCCc2ccccc21 (stereo unspecified)	-5	-11	12	nt	-19	-15	-7	i
Cc1ccc(C2(C)NC(=O)N(CC(=O)Nc3c(C)n(C)n(-c4ccccc4)c3=O)C2=O)cc1 (stereo unspecified)	-11	15	5	-178	-5	2	-7	i
CN(C(=O)c1ccc(NC(=O)Cc2cccc(NC(=O)C3CCCN(C(=O)C4CC4)C3)c2)cc1)C1CC1 (stereo unspecified)	-2	nt	nt	-1	8	8	nt	nt
CCN1CCN(C(C(=O)NC2CCCCC2)c2ccc(Cl)cc2)CC1 (stereo unspecified)	nt	1	-6	-47	1	2	-6	i
CN(C)CCCN(C(=O)c1ccc(S(=O)(=O)N2CCc3ccccc32)cc1)c1nc2ccc(F)cc2s1	-18	-4	6	0	4	6	1	i
CCS(=O)(=O)c1cc([N+](=O)[O-])c(Sc2ccccc2NC(C)=O)s1	-22	9	5	7	2	0	1	i
CSc1cccc(NC(=O)CCc2ccccc2)c1	nt	0	-8	3	6	5	2	i
CCOc1ccc(NC(=S)N2c3ccccc3CC2C)cc1 (stereo unspecified)	nt	-7	26	14	-9	0	-9	i
Cc1ccc(OCc2nnc(SCC(=O)c3cccs3)n2-c2ccccc2)cc1C	-15	10	-12	-1	-3	-12	1	i
Cc1ncc2c(c1OC(=O)c1ccccc1)COC(C)(C)OC2	5	-12	-4	-17	2	6	-2	i
O=C(O)c1ccccc1-n1c(-c2ccccc2)cc2c1CCCC2=O	4	-7	7	2	0	3	-3	i
CCN(CC(=O)NCc1cccs1)C(=O)COc1ccc(C(C)=O)cc1	-16	-8	nt	nt	-1	-5	nt	nt
CCCC(C)C(=O)NCc1ccc2c(c1)OCO2 (stereo unspecified)	-8	-5	-7	nt	2	0	8	i
CC(NCC1(N2CCOCC2)CCCCC1)C(=O)Nc1ccc(Cl)cc1Cl (stereo unspecified)	nt	-1	-7	27	-3	3	-4	i
CSc1ccc2c(c1)C(N1CCN(C)CC1)Cc1ccccc1S2 (stereo unspecified)	-4&0	?	-4	-18&13	-5&-12	-3&-7	-12	i
CC(=O)N1CCc2ccc(NC(=O)c3c(-c4c(Cl)cccc4Cl)noc3C)cc21	-1	-4	10	19	0	-2	5	nt
O=C(CO/N=C/c1ccc(OC(F)F)cc1)N1CCc2ccccc21	nt	-6	-7	16	-1	2	-2	i
Cc1cc(C)cc(C(=O)Nc2cccc(NC(=O)c3ccco3)c2)c1	5	-16	2	13	2	2	-8	i
O=C(c1ccc(C(F)(F)F)cc1)C1CCCN(C(=O)CN2C(=O)CSC2=O)C1 (stereo unspecified)	-18	18	12	-5	2	2	2	i
Cc1nn(-c2ccccc2)c(C)c1/C=N/NC(=O)CSc1nc2ccccc2c(=O)n1-c1ccc(Br)cc1	-10	27	-3	10	-15	-5	-6	i
CSCCC(NS(=O)(=O)c1ccccc1F)C(=O)OCc1ccccc1Cl (stereo unspecified)	5	-4	0	20	5	4	-2	i
Cc1ccc(NC(=O)CN(C)C(=O)CCC(=O)N2CCOCC2)cc1	nt	nt	nt	2	-1	3	nt	i
Cc1ccc(S(=O)(=O)N(CC(=O)NCc2ccncc2)Cc2ccc(F)cc2)cc1	-4	-7	0	13	-4	-4	-14	i

The list continues:
SMILES	UUG fidelity	CSC inhib	PABP FP inh	Env fusion inh	MT1-MMP act inh	MT1-MMP act inh RFP	eIF4H inh	Rce1 inhib	others
CCN(CC)CCNC1=CC(=O)OC12CCCCC2	-6	nt	0	nt	-2	-2	-2	i
COc1cc(/C=N/Nc2cccc(C)c2)cc(Br)c1O	nt	nt	-8	5	2	4	-2	nt
COc1cccc(CNC(=O)C2CCC(CNS(=O)(=O)c3cccc4cccnc34)CC2)c1 (stereo unspecified)	6	1	-3	-11	-1	-1	-3	i
O=C(CN1C(=O)NC2(CCCCCC2)C1=O)NC1CCCCCCC1	nt	-14	-5	-7	1	3	-2	i
CCOC(=O)Cn1c(-c2ccccc2)ccc(C#N)c1=O	-11	-1	8	-5	-9	-3	4	i
N#Cc1ccccc1NC(=O)COC(=O)c1ccc(S(=O)(=O)N2CCCC2)cc1	-4	nt	-4	nt	2	6	-13	i
O=C(CCc1nnc2ccc(N3CCCCC3)nn12)NCC1CCN(Cc2ccc(F)cc2)CC1	-27	-14	10	-2	-4	0	0	i
O=C(CN1CCN(c2ccccc2F)CC1)N1N=CCC1c1ccccc1 (stereo unspecified)	nt	-16	8	3	2	-1	6	nt
COc1c(Cl)cc(Cl)cc1C(=O)Nc1ccc(NC(=O)c2cccs2)cc1	-18	nt	1	nt	-6	-5	-5	i
CCOc1ccc2nc(SCC(=O)N3c4ccccc4Sc4ccccc43)sc2c1	nt	1	-5	-11	2	4	1	i
CC1(C(=O)NS(=O)(=O)C2CC2)CCCN(C(=O)c2cccs2)C1 (stereo unspecified)	15	nt	nt	-42	-2	0	nt	nt
CCOC(=O)N1CCN(Cc2nc(-c3ccc(C)cc3)no2)CC1	-5	-11	-15	6	-2	-8	-1	i
COc1ccc(CCNC(=O)CCN2C(=O)c3ccccc3C2=O)cc1OC	nt	1	-14	nt	nt	nt	-14	nt
CSCCC(NC(=O)C1CCCC1)c1nnc2ccccn12 (stereo unspecified)	-19	-4	-4	4	-1	-1	-14	i
O=C1NCC(COc2ccc(Cl)cc2)O1 (stereo unspecified)	nt	-15	20	-6	-3	0	4	i
C=CCC1(O)C(=O)N2C(=C1C(=O)OCC)c1ccc3ccccc3c1CC2(C)C (stereo unspecified)	4	-4	4	-42	-6	-1	9	i

A section from the list above, for reference:
SMILES	UUG fidelity	CSC inhib	PABP FP inh	Env fusion inh	MT1-MMP act inh	MT1-MMP act inh RFP	eIF4H inh	Rce1 inhib	others
COc1ccc(CCNC(=O)CCN2C(=O)c3ccccc3C2=O)cc1OC	nt	1	-14	nt	nt	nt	-14	nt
CSCCC(NC(=O)C1CCCC1)c1nnc2ccccn12 (stereo unspecified)	-19	-4	-4	4	-1	-1	-14	i
O=C1NCC(COc2ccc(Cl)cc2)O1 (stereo unspecified)	nt	-15	20	-6	-3	0	4	i
C=CCC1(O)C(=O)N2C(=C1C(=O)OCC)c1ccc3ccccc3c1CC2(C)C (stereo unspecified)	4	-4	4	-42	-6	-1	9	i

Compound activity as filed in PubChem BioAssay.
